RecA intein inh: Mtb RecA intein splicing inhibition | P9WHJ3 | cell-free RecA intein splicing, fluorescence | inhibition, %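 (about 9 µM by stock and volumes)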 | 290,000 compounds, 0.75% hits | AID 2221; in the data active = inhibition above about 30%; inconclusive = no clear call, values can overlap the other calls;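 also: 0% = vehicle wells and 100% = reference inhibitor control wells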
Target sequence (P9WHJ3 whole entry, looked up): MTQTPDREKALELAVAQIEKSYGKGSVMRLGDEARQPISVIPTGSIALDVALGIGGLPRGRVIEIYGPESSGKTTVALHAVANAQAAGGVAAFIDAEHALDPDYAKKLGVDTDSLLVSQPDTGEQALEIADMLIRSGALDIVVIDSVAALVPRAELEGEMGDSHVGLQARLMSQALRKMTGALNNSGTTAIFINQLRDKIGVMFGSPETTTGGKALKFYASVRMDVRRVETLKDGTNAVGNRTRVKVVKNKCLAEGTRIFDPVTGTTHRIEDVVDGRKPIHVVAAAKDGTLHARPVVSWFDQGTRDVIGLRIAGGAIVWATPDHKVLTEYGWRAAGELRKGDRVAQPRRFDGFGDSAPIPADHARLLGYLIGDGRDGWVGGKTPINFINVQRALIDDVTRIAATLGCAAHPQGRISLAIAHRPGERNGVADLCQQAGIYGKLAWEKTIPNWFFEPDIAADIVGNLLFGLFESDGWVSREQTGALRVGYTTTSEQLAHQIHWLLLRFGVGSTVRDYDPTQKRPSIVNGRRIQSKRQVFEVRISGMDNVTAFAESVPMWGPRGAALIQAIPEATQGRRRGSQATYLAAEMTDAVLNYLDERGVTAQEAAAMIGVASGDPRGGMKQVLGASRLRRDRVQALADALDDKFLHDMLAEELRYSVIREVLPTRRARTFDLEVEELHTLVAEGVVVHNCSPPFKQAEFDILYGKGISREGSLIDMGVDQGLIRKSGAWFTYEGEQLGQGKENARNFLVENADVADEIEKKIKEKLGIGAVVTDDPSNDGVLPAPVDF
Arbovirus anti: antivirals against arbovirus infection; arbovirus infection cell-based antiviral screen; inhibition, % at 10 µM; 200,000 compounds, 0.37% hits; AID 1251;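 active = inhibition from about 30%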;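 also: bluetongue infection of BSR cells; cell survival read as ATP light after 72 h; 0% = infected wells without compound and 100% = uninfected wells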
Mtb betalactam: beta-lactam sensitization of Mtb H37Rv | 330,000 compounds, 0.27% hits | AID 434955 | M. tuberculosis H37Rv growth with meropenem, percent inhibition; hits of this screen are not shown here | inhibition, % at 25 µM;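 active = about 74% or more and at least 40 points above the plate without the antibiotic, then above 30% in a dose series; inconclusive = first-round hits that could not be retested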;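 also: growth measured after seven days incubation then overnight dye step; 0% = bacteria only wells and 100% = bacteria with antibiotic; twin plates without the antibiotic show which effects depend on it; some results filed as inactive read as strong as hits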
YopH inh: YopH (Yersinia) phosphatase inhibition; fluorescence Ex485/Em525; inhibition, %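 (about 10 µM by stock and volumes)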; 140,000 compounds, 0.16% hits;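 active = inhibition of 50% or more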;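 also: controls were vehicle for no effect and minimum signal wells for full effect; inactives centre near -20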
Mtb H37Rv: M. tuberculosis H37Rv growth inhibitors, H37Rv strain (AID 1626); M. tuberculosis H37Rv growth inhibition; higher % means a stronger effect; inhibition, % at 10 µM; hits with a dose series show IC50 in µM; 220,000 compounds, 0.95% hits;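 active = confirmed in a dose series; inconclusive = inhibition above 80% but not taken into the dose series; inactive = below 80% or under 30% at every dose of the series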;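 also: bacteria incubated seven days before Alamar blue readout; 0% = bacteria only wells and 100% = bacteria with antibiotic wells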
Arbovirus anti repeat: also measured in Arbovirus anti; calls as there; inhibition, %; measured here: 10K subset replicate screen; many hits read low in the repeat;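 first of two repeat runs on a subset; 0% = infected and 100% = uninfected wells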
* = called active by the depositor; ? = inconclusive; / = no result given.

SMILES | RecA intein inh | Arbovirus anti | Mtb betalactam | YopH inh | Mtb H37Rv | others
O=C(CC(c1ccccc1)c1ccccc1)Nc1ncn[nH]1 | -2.5 | -1 | -8 | -13 | 0% | Arbovirus anti repeat=1
CC(Nc1ccccc1CO)C(=O)Nc1cccc(Cl)c1Cl (stereo not given) | 3.2 | 4 | -8 | / | -3%
COc1ccc(S(=O)(=O)Nc2c(O)ccc3ccccc23)cc1OC | 96* | / | -6 | / | /
CC1CCCC(NC(=O)CN(C)S(=O)(=O)c2cnc[nH]2)C1C (stereo not given) | -2.1 | -2 | 1 | / | 0%
Cc1ccccc1NC(=O)Nc1nc2ccc(S(C)(=O)=O)cc2s1 | -2.5 | 0 | 0 | 14 | -4%
Cc1cccc(CCN=c2c([N+](=O)[O-])nn(-c3ccccc3)n2O)c1 | 6.7 | -27 | 100 | / | ?
CC(C)COC(=S)Nc1ccccc1 | 0.0 | -8 | 5 | 14 | -1%
CC(C)c1ccccc1-n1c(SCC(=O)N2CCc3ccccc3C2)nc2ccccc2c1=O | 19 | 12 | -2 | -28 | 20%
COC(=O)C(Cc1ccccc1)NC(=O)c1cc(S(=O)(=O)N(C)C)ccc1Cl (stereo not given) | -2.9 | 8 | 4 | / | 3%
Cc1ccc(C(=O)COC(=O)CN2C(=O)C3C4C=CC(C4)C3C2=O)cc1C (stereo not given) | -3.8 | / | -15 | / | /
S=C(NCc1ccccc1)Nc1ccc(Oc2ccccc2)cc1 | 10 | / | 4 | / | /
COc1ccc(OC)c(NC(=O)C2C3C=CC(C3)C2C(=O)NCc2cccnc2)c1 (stereo not given) | / | 16 | -4 | / | -8%
COc1ccc(C(=O)C2CCCN(C(=O)Cn3nc(C)cc3C)C2)cc1F (stereo not given) | -0.4 | / | -9 | / | -2%
C1CC2NCCC3NCCC(N1)N32 (stereo not given) | -1.8 | / | 83 | / | 1%
CCCCCC(=O)NN1C(=S)N(c2ccc(OC)cc2)C(=O)C1CC(=O)Nc1ccccc1 (stereo not given) | / | / | 0 | / | -18%
Cc1ccc(C(=O)c2sc3c(c2N)c(=O)[nH]c(=O)n3CCc2ccccc2)cc1 | -3.2 | -1 | 74 | -4 | 6%
CCN(C(N)=S)c1ccccc1 | 1.8 | 19 | 2 | -35 | -2%
O=C1CC(Nc2ccc(N3CCOCC3)cc2)C(=O)N1Cc1ccccc1 (stereo not given) | -7.5 | -15 | -3 | -34 | 5%
Cc1cc(C(=O)N/N=C/c2c(CO)cnc(C)c2O)c2ccccc2n1 | -1.6 | / | -4 | / | /
CC1CN(C(=O)c2ccc(NS(=O)(=O)c3ccc(F)c(F)c3)cc2)CC(C)O1 (stereo not given) | 3.3 | / | 0 | / | /
CC(C)c1cc(C(=O)Nc2sc3c(c2C#N)CCC3)no1 | 1.6 | -15 | 14 | -42 | -1%
COc1cc(NC(=O)c2ccc(Cl)cc2)c(OC)cc1Cl | 0.3 | 2 | 0 | -12 | -11%
Clc1ccc(-n2cccc2)cn1 | 0.4 | 9 | 7 | / | 5%
CCCN(CC(=O)Nc1ccccc1C)C(=O)/C=C/c1cccs1 | 1.1 | -7 | -2 | -4 | -2%
CCCSc1nnc(NC(=O)CSc2sc3c(O)cc(=O)[nH]c3c2C#N)s1 | 6.7 | / | -7 | / | /

Compounds from the list above with four or more nitrogen atoms:
SMILES | RecA intein inh | Arbovirus anti | Mtb betalactam | YopH inh | Mtb H37Rv | others
O=C(CC(c1ccccc1)c1ccccc1)Nc1ncn[nH]1 | -2.5 | -1 | -8 | -13 | 0% | Arbovirus anti repeat=1
CC1CCCC(NC(=O)CN(C)S(=O)(=O)c2cnc[nH]2)C1C (stereo not given) | -2.1 | -2 | 1 | / | 0%
Cc1cccc(CCN=c2c([N+](=O)[O-])nn(-c3ccccc3)n2O)c1 | 6.7 | -27 | 100 | / | ?
C1CC2NCCC3NCCC(N1)N32 (stereo not given) | -1.8 | / | 83 | / | 1%
CCCCCC(=O)NN1C(=S)N(c2ccc(OC)cc2)C(=O)C1CC(=O)Nc1ccccc1 (stereo not given) | / | / | 0 | / | -18%
Cc1cc(C(=O)N/N=C/c2c(CO)cnc(C)c2O)c2ccccc2n1 | -1.6 | / | -4 | / | /
CCCSc1nnc(NC(=O)CSc2sc3c(O)cc(=O)[nH]c3c2C#N)s1 | 6.7 | / | -7 | / | /

Structures above that have a cyano group:
SMILES | RecA intein inh | Arbovirus anti | Mtb betalactam | YopH inh | Mtb H37Rv | others
CC(C)c1cc(C(=O)Nc2sc3c(c2C#N)CCC3)no1 | 1.6 | -15 | 14 | -42 | -1%
CCCSc1nnc(NC(=O)CSc2sc3c(O)cc(=O)[nH]c3c2C#N)s1 | 6.7 | / | -7 | / | /

Further compounds follow:
SMILES | RecA intein inh | Arbovirus anti | Mtb betalactam | YopH inh | Mtb H37Rv | others
Cn1c(CN2CCN(C(=O)c3ccco3)CC2)nc2cc([N+](=O)[O-])ccc21 | 1.5 | / | -14 | / | /
N/C(=N\OC(=O)Nc1ccccc1)c1ccno1 | 1.6 | / | -5 | / | -7%
COc1ccc(OCC(=O)C2CC2)c(C#N)c1 | -1.5 | / | -1 | / | 3%
CC1(/[N+]([O-])=C/c2cccc(Cl)c2)CCCCC1=O (stereo not given) | -4.6 | / | -5 | / | -5%
Cc1c(C(=O)N2CCCC2)c(S(=O)(=O)Nc2ccccc2Cl)c(C)n1C | -0.2 | / | 3 | / | /
O=C(C1CCCN(Cc2ccccc2[N+](=O)[O-])C1)N1CCCC1 (stereo not given) | -3.5 | / | 3 | / | /
CCOC(=O)/C(C#N)=C\C1=C(N2CCOCC2)CC(C)(C)OC1 | 0.8 | 10 | -10 | / | -9%
CNC(=O)COc1ccc(C=O)cc1OC | -0.5 | -2 | 1 | -14 | -2%
COc1ccc(OC)c(C(c2nnnn2Cc2ccccc2)N2CCC(C(N)=O)CC2)c1 (stereo not given) | -12 | -1 | -2 | -16 | 7%
OCCN1c2ccccc2CCc2ccccc21 | 2.1 | / | 11 | / | /
CCN1Cc2c(/C=C/c3ccccc3)nc3ccc(OC)cc3c2N(c2cccc(Cl)c2)C1 | 34* | / | 90 | / | ?
CN(C)CCCN(C(=O)c1ccco1)c1nc2ccc(F)cc2s1 | 0.3 | 1 | -9 | / | 4%
CCC(=O)c1cc2c(C)cc(=O)oc2c(C)c1OC(C)=O | -15 | 2 | 0 | -34 | -2%
CC(C)Cn1c(-c2ccc(Br)o2)n[nH]c1=S | -1.6 | 3 | 0 | -28 | 3%
O=C(COc1ccc2c(-c3ccccc3)cc(=O)oc2c1)NCc1cccs1 | -4.3 | -6 | 0 | -17 | 1%
Cc1cc(C)c(/C([O-])=C(/C(=S)Nc2ccc(SC(F)F)cc2)[n+]2ccccc2)cc1C | 1.8 | 18 | 18 | / | 6%
COc1ccc(NC(=O)CSCC(=O)Nc2nnc(C)s2)cc1 | -0.4 | / | -5 | / | /
Cc1ccc(SCC(=O)NC(=O)NCc2ccco2)c(C)c1 | 2.2 | -4 | -14 | 9 | -2%
CCn1c(CCNC(=O)c2ccccc2Cl)n[nH]c1=S | -2.7 | -2 | -14 | -17 | 5%
COc1ccc(C)cc1S(=O)(=O)N1CCCC(C(=O)N2CCN(c3ccccc3F)CC2)C1 (stereo not given) | 2.2 | / | 4 | / | /
COc1cccc(N2CCN(S(=O)(=O)c3ccc4c(c3)N(C(C)=O)CCO4)CC2)c1 | -1.4 | / | -2 | / | /
CCOc1ccc(CCNC(=O)COC(=O)Cn2cnc3ccccc3c2=O)cc1OCC | -0.4 | 0 | 2 | / | 1%
O=[N+]([O-])c1ccc(N2CCN(S(=O)(=O)c3ccccc3)CC2)c2cccnc12 | 5.9 | -10 | 7 | / | -9%
O=C(NNC(=S)NCc1ccccc1)c1ccc(Br)o1 | 7.1 | 7 | 0 | / | 8%
O=C(CCC(=O)Nc1ccccc1)NCCO | 1.0 | 20 | -11 | -5 | -1%

Later entries:
SMILES | RecA intein inh | Arbovirus anti | Mtb betalactam | YopH inh | Mtb H37Rv | others
Cc1ccc(NS(=O)(=O)c2cccc(C(=O)N(C)Cc3cccs3)c2)cc1 | 2.5 | / | -11 | / | /
CCOC(=O)N1CCN(c2c(N3CCc4ccccc43)c(=O)c2=O)CC1 | 1.4 | 9 | 2 | / | -4% | Arbovirus anti repeat=2
COc1ccc(CN2CC(C(=O)NCCc3ccccc3)CC2=O)cc1 (stereo not given) | 1.9 | -2 | -2 | 45 | -12%
CCOC(=O)c1ccccc1NC(=O)CN1CCC(n2nnc3cc(C(F)(F)F)ccc32)CC1 | -0.1 | / | 0 | / | 0%
Cc1cc(C)cc(N(CC(=O)N2CCN(Cc3ccccc3)CC2)S(=O)(=O)c2c(C)noc2C)c1 | / | 4 | -3 | -37 | 1% | Arbovirus anti repeat=8
C/C(=N\NC(=O)c1cc2ccccc2cc1O)c1ccc2c(c1)OCO2 | -1.9 | -19 | 22 | -32 | /
CN(C1=NC(=O)CS1)c1ccc(O)cc1 | / | / | -3 | / | -6%
COc1cccc(-n2nnnc2SCC(=O)Nc2ccc3c(c2)OCCO3)c1 | / | -3 | 9 | -20 | /
COCCNC(=O)c1ccc(CN2CCc3ccccc3C2)cc1 | -0.9 | 2 | 0 | -24 | 3%
CCS(=O)(=O)C1=NN2C(=N)/C(=C\c3ccc(OCCOc4cccc(OC)c4)c(OC)c3)C(=O)N=C2S1 | 19 | / | 1 | / | /
CN(CC(=O)Nc1ccc(Cl)c(C(F)(F)F)c1)C(=O)C1CC(=O)N(Cc2ccco2)C1 (stereo not given) | -8.1 | / | -10 | / | /
CC(C)(C)C1CCC(C(=O)Nc2nccs2)CC1 (stereo not given) | -0.9 | / | 67 | / | /
O=C(/C=C/c1ccc(F)cc1)NC(=S)N1C[C@H]2C[C@H](C1)c1cccc(=O)n1C2 | 3.9 | / | -1 | / | /
CCCCC(=O)Nc1ccc(Br)cc1C(=O)O | 1.7 | 8 | 16 | -56 | -6% | Arbovirus anti repeat=12
CCCCCCCc1nc2c(=O)n(C)c3ccccc3c2o1 | -0.9 | 0 | 1 | 0 | 5%
O=C(c1ccco1)N1CCN(c2ncnc3c(-c4ccc(Cl)cc4)nsc23)CC1 | 0.0 | / | 2 | / | /
CCN1C(=O)c2cccc3c(NS(=O)(=O)c4ccc(NC(C)=O)cc4)ccc1c23 | -2.6 | -3 | 0 | -38 | -7%
CCOc1ccc2nc(SCc3ccccc3C#N)sc2c1 | -0.5 | 9 | 45 | -9 | 2%
COc1cc(/C=C/C(=O)Nc2ccc3nc4n(c(=O)c3c2)CCCC4)cc(OC)c1OC | -1.4 | -7 | -3 | / | 5%
COc1ccc(C(C)=O)cc1CSCC(=O)O | -4.4 | 6 | 4 | / | 1%
COc1ccc(C(=O)N/N=C(/C)c2cccc(NC(=O)C(F)(F)F)c2)cc1 | -3.7 | -5 | -2 | -30 | 2%
COCCNc1nc(-c2cc(C)c(C)cc2C)cs1 | -0.8 | 8 | 4 | / | -3%
CCOC(=O)c1ccc(-n2c(CCC(=O)O)ccc2-c2ccccc2)cc1 | 2.1 | / | -7 | / | /
CCN(CC)C(=O)Cn1c(=O)c2ccccc2n2c(=S)sc(-c3cccc(C)c3)c12 | -3.1 | -24 | 6 | -19 | 2%
CCCOC1CCCN(Cc2cn(C)nc2-c2ccccc2F)C1 (stereo not given) | 1.6 | 5 | -9 | / | -6%

(listing goes on)
SMILES | RecA intein inh | Arbovirus anti | Mtb betalactam | YopH inh | Mtb H37Rv | others
COc1ccc(/C=C(\NC(=O)c2ccccc2)C(=O)N/N=C/c2cccnc2)cc1 | 4.0 | / | -2 | / | 3%
Cc1ccc(C)c(NC(=S)N2CCN(S(=O)(=O)c3ccccc3)CC2)c1 | -0.6 | / | -1 | / | /
CC1CCN(c2nc(-c3ccc(F)cc3)cc(C(F)(F)F)n2)CC1 | 5.8 | -1 | -2 | -10 | -6%
CCOc1ccc(C(=O)Nc2sc3c(c2C(=O)OC)CC(C)(C)NC3(C)C)cc1 | 0.0 | -22 | 0 | / | /
CCN(CC)Cc1cc2[nH]c3c4ccc(Cl)cc4ncc3c2cc1OC | 1.2 | / | / | / | 8%
COc1cc(NC(=O)/C=C/c2ccccc2[N+](=O)[O-])cc(OC)c1 | 11 | -3 | 1 | -22 | 1%
CCOC(=O)COc1cccc2c(=O)n(CC(=O)N3CCc4ccccc43)ccc12 | -0.3 | 0 | 1 | -43 | 7% | Arbovirus anti repeat=-5

Not a retest: 2 of the compounds above.
SMILES | RecA intein inh | Arbovirus anti | Mtb betalactam | YopH inh | Mtb H37Rv | others
CCOc1ccc(C(=O)Nc2sc3c(c2C(=O)OC)CC(C)(C)NC3(C)C)cc1 | 0.0 | -22 | 0 | / | /
CCN(CC)Cc1cc2[nH]c3c4ccc(Cl)cc4ncc3c2cc1OC | 1.2 | / | / | / | 8%

Source: PubChem BioAssay

This is a subset; the hit share may differ from the screen's.
